PABP FP inh – PABP-poly(A) binding inhibition | P11940 | PABP-poly(A) RNA binding, fluorescence polarization | inhibition, % at 35 µM | 1% of 290,000 active | AID 2014;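 active means 50% or more with normal probe brightness, or confirmed in later tests; inconclusive means above 50% with abnormal brightness, or retests that disagree; inactive means below 50% or failed in later tests; about a fifth of its hits are not listed in these tables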;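 further: calls also rest on retests at 20 µM and on dose response follow-up; controls were probe without protein and protein plus probe with vehicle; some compounds called inactive have numbers as strong as hits; many hits fall short of the cut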
Target sequence (P11940 whole entry, looked up): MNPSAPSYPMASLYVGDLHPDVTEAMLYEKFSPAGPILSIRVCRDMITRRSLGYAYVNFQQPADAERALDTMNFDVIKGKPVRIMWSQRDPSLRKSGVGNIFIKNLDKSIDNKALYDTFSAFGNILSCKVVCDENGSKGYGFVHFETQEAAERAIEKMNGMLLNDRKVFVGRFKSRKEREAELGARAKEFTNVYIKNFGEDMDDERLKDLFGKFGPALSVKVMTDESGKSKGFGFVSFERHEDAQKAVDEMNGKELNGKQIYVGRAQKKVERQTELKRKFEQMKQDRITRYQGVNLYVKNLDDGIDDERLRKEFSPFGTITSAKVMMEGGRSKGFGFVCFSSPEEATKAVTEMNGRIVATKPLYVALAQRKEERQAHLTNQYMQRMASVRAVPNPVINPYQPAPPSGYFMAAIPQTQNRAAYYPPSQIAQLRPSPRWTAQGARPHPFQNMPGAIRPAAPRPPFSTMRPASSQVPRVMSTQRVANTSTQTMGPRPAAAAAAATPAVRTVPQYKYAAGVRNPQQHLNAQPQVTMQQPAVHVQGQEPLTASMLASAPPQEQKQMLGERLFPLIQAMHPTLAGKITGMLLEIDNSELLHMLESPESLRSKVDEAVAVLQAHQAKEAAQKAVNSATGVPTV
Rce1 inh – yeast Ras-converting enzyme inhibition. Q03530. yeast membranes, quenched prenylated peptide cleavage fluorescence. calls only. 0.27% of 290,000 active. AID 2563;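 active means fall in fluorescence gain of 50% or more versus controls, with final raw signal at or below 3038400; inconclusive means same 50% fall but final raw signal above 3038400; inactive means fall in fluorescence gain under 50%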;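 further: plate controls were neutral control wells for no effect and wells lacking membranes for full effect; tested at 10 µM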
Env fusion inh – HIV envelope-mediated fusion inhibition; HeLa-JRFL Env/CEM21 cell fusion, luciferase; inhibition, % at 12.3 µM; 1.1% of 360,000 active; AID 651610;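 active means mean replicate inhibition score of at least 50 and every replicate individually at or above 50; inconclusive means only one of the two criteria met; inactive means mean below 50 and not all replicates reaching 50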;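 further: 0% = plate neutral controls and 100% = maraviroc near 300 nM; one replicate is shown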
Yeast UUG start – alters start codon recognition fidelity in yeast. S. cerevisiae UUG-firefly luciferase reporter, luminescence/redox ratio. 0.13% of 350,000 active. AID 602363. activity score, % at 18.7 µM;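 active means replicate mean at a twofold rise or more, about +100% in these data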;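 further: firefly luciferase made from a UUG start codon reports start codon fidelity; reporter light over untreated wells divided by growth signal over untreated wells; some hits fall short of that in this replicate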
MT1-MMP act inh – inhibitors of human MT1-MMP activation | P50281 | HT1080 RFP-PRO-GFP cells, GFP/RFP ratio fluorescence, overnight; percent of plate control window, DMSO zero | GFP/RFP ratio change, % at 20 µM | 0.061% of 360,000 active | AID 651647;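 active means GFP/RFP ratio change of at least 30% with cell ATP level not reduced by more than half and red fluorescence within 50% of control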; further: strong numbers were not always called active
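Assay system – RFP-PRO-GFP reporter HT1080 cells · Compound dosing – single dose of 20 µM compound, 1% DMSO final · Incubation – overnight compound exposure at 37 °C · Measure – GFP/RFP fluorescence ratio · Benchmarks – DMSO wells and RFP-L50D-GFP cells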
eIF4H FP inh – inhibitors of RNA binding by human eIF4H; Q15056; eIF4H fluorescence polarization binding assay; 0.94% of 290,000 active; inhibition, % at 35 µM;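 active means 50% or more with normal probe brightness, or confirmed in later tests; inconclusive means above 50% with abnormal brightness, or retests that disagree; inactive means below 50% or failed in later tests; about a fifth of its hits are not listed in these tables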;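 further: calls also rest on retests at 20 µM and on dose response follow-up; 0% = protein and probe with vehicle and 100% = probe without protein; strong numbers were not always called active; many hits fall short of the cut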
CSC inhib – cancer stem cell inhibition. cancer stem cell-like cells viability, luminescence. inhibition, % at 7.5 µM. 1.1% of 300,000 active. AID 2717;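 active means mean at 75% or more and at least half the replicates too; inconclusive means mean and replicates disagree; tested in HMLE shEcad cells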;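 further: 0% = median of negative and 100% = median of positive control wells; the first replicate is given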
eIF4H FP inh retest – recorded beside eIF4H FP inh, whose call it bears; inhibition, %; compound at 20 µM; confirmation average;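 mean of two retest wells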
PABP FP inh retest – recorded beside PABP FP inh, whose call it bears; inhibition, %; compound at 20 µM; confirmation repeats;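 mean of two retest wells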
MT1-MMP act inh RFP – second read-out of MT1-MMP act inh, no call of its own (marks repeat the call); RFP signal change, %; measured here: RFP expression control read;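 0 = vehicle wells; hits needed this value within 50% of zero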
An asterisk follows results filed as active; i = inactive; ? = inconclusive; . = not tested or not shown; + = active, no number.

SMILES	PABP FP inh	Rce1 inh	Env fusion inh	Yeast UUG start	MT1-MMP act inh	MT1-MMP act inh RFP	eIF4H FP inh	CSC inhib	others
CC(=O)NCCc1ccc(S(=O)(=O)Nc2ccc(C)c(S(=O)(=O)N3CCOCC3)c2)cc1	12.5	i	0.3	1.4	-7.2	-1.5	1.1	.
CCOC(=O)c1ccc(S(=O)(=O)N2CCN(CC(=O)NC(=O)NC(C)(C)C)CC2)cc1	-1.3	i	3.1	-7.9	0.6	2.0	0.1	-6.4
CN(C)CCOC(=O)C1(c2ccccc2)CCCC1	9.7	i	.	-18.8	-4.9	0.2	-4.9	-4.8
COc1ccc(-c2nc(-c3ccc(NC(=O)c4ccncc4)cc3)no2)cc1OC	8.3	i	.	0.7	3.9	-23.9	-6.7	30.3
O=C(NNC(=O)c1ccco1)c1ccc(NS(=O)(=O)c2cccs2)cc1	.	.	-5.4	.	6.8	-0.3	.	-2.0
COC(=O)C1CSC(C)(C)C(=O)N1 (stereo unspecified)	-9.8	i	1.5	-15.3	2.4	2.7	-4.4	-13.7
COc1ccc(C(=O)CC(=O)C(=O)Nc2cc(OC)ccc2OC)cc1	0.1	i	-9.6	.	4.1	3.5	5.1	-4.4
O=C(COC(=O)C1COc2ccccc2O1)Nc1ccc(Cl)cc1 (stereo unspecified)	.	.	.	-12.5	-2.4	-1.6	.	-9.2
COc1cc(S(=O)(=O)N2CCCC3(CCCCC3)C2)ccc1-n1cnnn1	-3.7	i	.	.	5.9	-7.4	1.6	-9.9
O=C(Nc1ccccc1N1CCOCC1)c1cc2ccccc2o1	-12.8	.	-19.7	-7.3	-2.2	-6.3	-5.6	4.1
COc1cc(C(c2c(C(=O)O)[nH]c3ccccc23)c2c(C(=O)O)[nH]c3ccccc23)ccc1OCc1ccccc1	23.7	i	27.4	-11.5	-3.9	3.2	36.6	40.5
COc1ccc(OC)c(NC(=O)COC(=O)COc2ccc(Nc3ccccc3)cc2)c1	.	.	.	-2.6	0.0	4.0	.	13.4
O=C(Nc1cccnc1)c1ccc(NS(=O)(=O)c2cccc([N+](=O)[O-])c2)cc1	-8.8	i	-4.6	.	3.2	3.7	-4.0	-15.9
Cc1nc(S(=O)(=O)N2CCN(C3c4ccccc4-c4ccccc43)CC2)cn1C	1.0	i	2.9	-11.6	6.5	2.1	-8.7	-3.4
C=CCOc1c2ccc(C(=O)NCc3ccc(OC)cc3)cc2nn1C	-4.1	i	-33.5	-3.4	1.6	1.5	2.5	9.8
O=c1c2ccccc2nc(/C=C/c2c[nH]c3ccccc23)n1CCO	0.6	i	-22.2	.	-1.9	-8.3	0.7	5.6
Cn1c(=O)c2cc(NC(=S)NC3CC3)ccc2n1Cc1ccccc1	.	.	-29.2	-14.6	0.4	0.9	.	.
COc1ccc(C(C(=O)NCCC(C)C)N(CCCO)C(=O)c2snc(C(N)=O)c2N)cc1OC (stereo unspecified)	4.2	i	-0.5	-1.7	2.2	3.0	0.9	-12.9
CC(=O)c1sc(NC(=O)COc2c(C)cc(Cl)cc2C)nc1C	12.2	i	.	.	.	.	-3.4	3.7
COc1ccc(-c2csc(NC(=O)CN3C(=O)CCC3=O)n2)cc1OC	3.1	i	-0.5	.	3.2	3.1	-5.6	-12.6
O=C(Cc1ccc(Br)cc1)N1CCN(c2ccccn2)CC1	3.0	i	-7.2	.	1.7	-0.9	7.3	-12.9
NS(=O)(=O)c1ccc(NC(NC(=O)c2cccnc2)C(Cl)(Cl)Cl)cc1 (stereo unspecified)	-3.3	i	-2.0	-17.9	-3.1	2.4	-4.9	-10.2
O=C(O)Cc1ccc(Oc2ncc(C(F)(F)F)cc2Cl)cc1	-0.6	i	2.9	-4.7	7.7	1.8	-12.6	-1.6
Cc1ccc(NC(=O)CN(C)C(=O)Cn2ccsc2=N)cc1	-3.1	i	7.1	-10.9	1.3	-6.5	3.4	-0.9
O=C(CC1CCCCC1)NCc1ccco1	-2.0	i	-0.2	.	1.8	4.7	-6.2	-1.9
Next compounds follow.
SMILES	PABP FP inh	Rce1 inh	Env fusion inh	Yeast UUG start	MT1-MMP act inh	MT1-MMP act inh RFP	eIF4H FP inh	CSC inhib	others
COc1ccc(-n2cc(CNC(C)c3ccncn3)c(-c3cccc(F)c3)n2)cc1 (stereo unspecified)	1.9	i	22.8	.	-5.0	-4.7	-0.1	1.5
COC(=O)C1=C(C)NC(=O)NC1c1ccc2c(c1)OCO2 (stereo unspecified)	-3.4	i	-22.1	-19.5	3.0	-0.1	42.8	-0.5
OC(c1ccccc1)c1ncc(-c2ccc(Oc3ccccc3)cc2)[nH]1 (stereo unspecified)	.	.	-41.9	-27.1	4.8	2.8	.	.
CC(c1n[nH]c(=S)n1-c1ccc(F)cc1)N1CCCCC1 (stereo unspecified)	1.9	i	13.3	6.4	-4.7	-3.2	12.0	0.3
O=C(CSCc1ccccc1Cl)N/N=C/c1ccco1	-5.2	i	-16.8	.	-0.9	-1.5	-14.1	-16.2
CCOC(=O)c1c(NC(=O)CSC2=NN3CCCC(=O)N=C3S2)sc2c1CCCCC2	-9.2	i	32.5	-8.7	-2.8	-11.4	-10.8	-2.9
O=C(CN1C(=O)c2cccc([N+](=O)[O-])c2C1=O)NCc1ccccc1	-6.0	i	9.8	-4.1	0.8	-1.5	7.5	1.9
CCCN1C(=O)SC(CC(=O)Nc2ccccc2C)C1=O (stereo unspecified)	3.0	i	.	-7.2	5.3	4.3	-7.3	-6.6
CC1=C(C(=O)OCc2ccccc2)C(c2ccccc2Cl)NC(=O)N1C (stereo unspecified)	6.1	i	8.0	9.9	15.3	-13.9	-0.1	-1.1
CCN(CC)c1ccc(C=NCCc2ccc(S(N)(=O)=O)cc2)cc1	-5.5	.	-1.7	0.1	-8.5	-0.3	-2.0	-5.0
CCCCNC(=O)CNC(=O)c1nn(-c2ccc(OC)cc2)c(=O)c2ccccc12	4.6	i	-5.8	-26.4	0.5	-0.5	-1.0	-13.2
CN(Cc1cccc2cnccc12)C(=O)c1cc(COc2ccc(F)cc2Cl)on1	-13.4	i	-4.1	2.2	-6.7	-17.4	-6.5	26.6
CCOC(=O)C1=CC[C@@H](c2cc(OC)c(OC)c(OC)c2)N(S(=O)(=O)c2ccc(C)cc2)[C@H]1C(=O)OCC	.	.	12.7	-13.2	1.1	-4.6	.	15.9
CC(C)(C)c1nc2c(C#N)c(-c3ccc(Cl)cc3)ccn2n1	11.1	i	.	-8.1	-4.2	-5.8	-0.7	.
Cc1cc(C(=O)CN2C(=O)c3ccccc3S2(=O)=O)c(C)n1CC1CCCO1 (stereo unspecified)	41.2	i	115.4*	4.3	6.4	3.8	20.6	-6.8
COc1cc2c(cc1OC)CN(C(=O)c1sc(-c3cnccn3)nc1C)CC2	4.3	i	-17.6	.	0.5	4.3	-3.9	18.3
CC(=O)Nc1ccc(S(=O)(=O)/N=C2\C(=O)c3ccccc3C([O-])=C2n2cc[n+](-c3ccccn3)c2)cc1	15.2	i	27.9	-23.1	-5.0	4.8	27.7	55.7
CCC(=O)Nc1cccc(NC(=S)NC(=O)c2cccs2)c1	-10.4	+	-19.6	-8.3	4.1	5.9	-7.6	-7.5
CCOC(=O)c1sc2ccccc2c1OC(=O)c1ccccc1	-2.5	i	.	-6.1	9.5	-0.1	-4.1	7.4
CCC(C)[C@H](NC(=O)NCCCN1CCOCC1)C(=O)OC (stereo partly specified)	-0.7	i	-32.1	.	5.8	9.5	-3.7	4.3
COc1cc(/C=C2/C(=N)N3N=C(C)SC3=NC2=O)ccc1OS(=O)(=O)c1ccc(C)cc1	2.4	i	-3.8	-8.3	-2.7	-0.9	1.9	1.7
CCCC(=O)Nc1cccc(NC(=O)c2ccc3c(c2)OCCO3)c1	2.7	i	-14.1	-5.9	6.5	5.5	-4.0	11.0
CCC(C)(C)n1nnnc1CN1CCN(c2nc3cc(OC)ccc3cc2C#N)CC1	-1.1	i	.	-39.9	3.3	-4.2	-8.1	8.0
COC(=O)C1C(c2ccc(OC)cc2)C(C(=O)OC)S(=O)(=O)C(CCN2CCCCC2)S1(=O)=O (stereo unspecified)	3.3	i	-6.9	.	-2.2	-1.0	-1.3	1.0
COc1ccc(Nc2c3c(nc4c(-c5ccccc5)c(C)nn24)CCC3)cc1	-2.2	i	14.7	.	-1.3	1.3	1.9	.

Two consecutive compounds from above, for reference:
SMILES	PABP FP inh	Rce1 inh	Env fusion inh	Yeast UUG start	MT1-MMP act inh	MT1-MMP act inh RFP	eIF4H FP inh	CSC inhib	others
COc1ccc(-n2cc(CNC(C)c3ccncn3)c(-c3cccc(F)c3)n2)cc1 (stereo unspecified)	1.9	i	22.8	.	-5.0	-4.7	-0.1	1.5
COC(=O)C1=C(C)NC(=O)NC1c1ccc2c(c1)OCO2 (stereo unspecified)	-3.4	i	-22.1	-19.5	3.0	-0.1	42.8	-0.5

New compounds follow:
SMILES	PABP FP inh	Rce1 inh	Env fusion inh	Yeast UUG start	MT1-MMP act inh	MT1-MMP act inh RFP	eIF4H FP inh	CSC inhib	others
Cc1ccccc1NC(=O)c1ccc(S(=O)(=O)C(F)F)cc1	-0.3	i	-6.3	.	0.5	4.4	-1.7	-19.1
COc1ccccc1C1=CC(=O)C[C@H](c2ccc3c(c2)OCO3)C1	.	.	-46.2	-12.0	3.0	-5.5	.	56.1
CC1CCCCN1C(=O)NC12CC3CC(CC(C3)C1)C2 (stereo unspecified)	3.4	.	15.9	-4.9	2.6	1.6	-14.3	.
Cc1ccc(C(=O)NN2C(=O)/C(=C/c3cn(C)c4ccccc34)SC2=S)cc1	3.8	.	11.0	.	-113.4	19.1	?	-3.8
CCOC(=O)N1CCN(c2cc(N)c([N+](=O)[O-])cc2F)CC1	-3.1	i	.	5.1	5.2	-9.6	-1.7	0.5
O=C1Cc2ccccc2C(=O)N1OCc1ccc(Cl)cc1Cl	9.1	i	0.0	.	-0.8	4.6	-13.0	1.2
O=C(CSc1nc(-c2ccco2)cc(C(F)(F)F)n1)NCc1cccs1	-12.3	i	.	.	-8.0	-6.0	-14.0	-0.5
O=C(NCc1cccnc1)c1ccc(COc2ccc(Cl)cc2Cl)o1	7.5	i	5.3	.	1.5	0.6	-1.9	-0.5
COCCN(C(=O)CCC(=O)Nc1ccccn1)C(C(=O)NCCC(C)C)c1ccc(OC)cc1 (stereo unspecified)	-13.2	i	.	-1.6	-1.5	0.5	-3.5	4.6
O=C(Nc1ccc(OCC(=O)N2CCOCC2)cc1)c1cc(F)c(F)cc1Cl	-5.8	i	-6.9	-17.3	3.9	0.7	-8.4	-2.9
O=C(c1ccc(N2C(=O)C3C4CC(C(Br)C4Br)C3C2=O)cc1)N1CCCCC1 (stereo unspecified)	4.7	i	-6.3	-17.8	2.1	0.7	2.0	.
OCCC1CN(Cc2cc3c(cc2Cl)OCO3)CCN1C1CCCC1 (stereo unspecified)	-4.9	i	-52.3	.	-1.6	3.5	-2.9	44.4
CN1/C(=C\C=C(/C#N)C(=O)Nc2ccccc2F)C(C)(C)c2ccccc21	7.9*	i	-7.3	.	-108.9	-0.3	73.7	-31.8	eIF4H FP inh retest=18.4;PABP FP inh retest=55.5*
CC(C)c1ccccc1NC(=S)N1CCN(Cc2ccc3c(c2)OCO3)CC1	5.3	i	-2.0	.	-1.8	-0.2	2.1	7.3
COC(=O)c1ccc(NC(=O)c2c(Br)cnn2C)cc1	2.5	i	-3.9	-8.2	-3.2	-4.1	1.6	-8.9
Cc1nn(CCOc2ccc(Br)cc2)c(C)c1[N+](=O)[O-]	10.9	i	-12.4	-20.3	2.0	-8.6	-9.0	18.8
